# NPYLR7 ag: agonists of mosquito NPYLR7 receptor, primary screen, cell-based, Aedes aegypti, calcium fluorescence, mosquito biting behavior; 270,000 tested, 0.15% active; activation, % at 10 µM; Aedes aegypti neuropeptide Y-like receptor 7 (NPYLR7); HEK293T NPYLR7/Galpha15, GCaMP6s calcium fluorescence; in the data active = activation above about 40%;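 also: 0% = vehicle and 100% = reference agonist at the receptor; some compounds past the cut are filed as inactive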
# NPYLR7 ag max-min: further read-out of NPYLR7 ag, marked with its call; activation, %; measured here: Max-Min RFU normalised activation; some inactives read as strong as hits;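 span of the calcium signal over five minutes; 0% = vehicle and 100% = native peptide agonist; compound fluorescence can raise it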
# Numbers without * were called inactive. This is a subset; count on the stated rates, not on these rows.
Molecule | NPYLR7 ag max-min | NPYLR7 ag
CCOC(=O)CCC(=O)Nc1cccc(C2SCC(=O)N2c2ccc(OC)cc2)c1 (configuration not stated) | 13 | 14
COc1ccc(Oc2cc(Cl)nc(N)n2)cc1 | -2 | -2
Cc1ccc(NC(=O)Cn2c(-c3nnc(C)o3)cc3ccccc32)c(C)c1 | 5 | 12
COc1ccc(-c2nnc(SCC(=O)N/N=C\c3ccc(C)o3)n2-c2ccccc2)cc1OC | -7 | -3
Cc1nc(N2c3ccccc3CC2C)nc2c1C(=O)CC(C)C2 (configuration not stated) | -3 | 2
Cc1ccc(CCC(=O)N(C)Cc2cnn(C(C)C)c2)cc1C | 3 | 5
Cc1nnsc1C(=O)OCc1cc(-c2ccc3c(c2)CC(C)O3)on1 (configuration not stated) | -2 | 1
Cc1ccc(C2SCCN2C(=O)Nc2ccc(Cl)cc2)c(C)c1 (configuration not stated) | 1 | -2
COc1ccc(NC(C(=O)N2CCCCC2)c2ccccc2)cn1 (configuration not stated) | 5 | 6
CCNC(=O)C12CCC(C)(c3nc4cc(C)c(C)cc4nc31)C2(C)C (configuration not stated) | -2 | -2
COc1ccc(OC)c(CCN2CC(=O)N(c3ccccc3)C3CS(=O)(=O)CC32)c1 (configuration not stated) | 4 | 4
O[C@@H]1CN(c2ncnc3sccc23)CC[C@H]1c1ccc2c(c1)OCO2 | 9 | 1
CCc1c(C)sc2nc(SCc3nc4sc5c(c4c(=O)[nH]3)CCC5)n(C)c(=O)c12 | 8 | 12
CCCCNC(=O)C1(C)CCCCN1C(=O)c1ccc(C)c(F)c1 (configuration not stated) | 1 | 3
O=C(CN1C(=O)CSC1=O)N1CCCCC1 | 0 | 2
NC(=O)C1CCN(C(=O)c2cc3c(s2)-c2ccccc2CC3)CC1 | 7 | 5
COc1cccc(Cn2ccnc2CN(C(=O)c2cccs2)C2CC2)c1 | 13 | 5
CCOC(=O)c1cc(-c2ccccc2)sc1NC(=O)c1cccc(OC(C)=O)c1C | -1 | 5
COc1ccc(CCC(=O)N2CCN(c3ccccn3)CC2)cc1OC | 1 | 7
O=C(c1ccco1)N1CCC(Nc2ncnc3[nH]ncc23)CC1 | 1 | 6
O=C1NC2(CCN(Cc3ccoc3)CC2)Nc2cccc(F)c21 | -1 | -2
CCc1ccccc1NC(=O)CN(C)C(=O)c1cc(C)sc1C | 0 | 2
Cn1nc(C(C)(C)C)cc1C(=O)N[C@@H](Cc1cccc(Cl)c1)C(=O)NCC#N | -6 | 3
CCN(CC)c1ccc(C2C(C(=O)OC)=C(C)N=C3SCC(=O)N32)cc1 (configuration not stated) | 10 | 6
NCc1ccc(-c2ccccc2CO)cc1 | -4 | 0
O=S(=O)(c1cccc(Cl)c1Cl)N1CCCC1c1ccc2c(c1)OCCCO2 (configuration not stated) | 0 | 5
O=C(CCc1ccncc1)N(Cc1ccco1)c1ccccc1 | 11 | 14
C1=CC2CC1CC2CN1CCN(Cc2ccc3c(c2)OCO3)CC1 (configuration not stated) | 1 | 1
COc1ccccc1NS(=O)(=O)c1ccc2c(c1)CCN2C(C)=O | -4 | -3
CCC(C)N(Cc1cccnc1)Cc1cccc(C)n1 (configuration not stated) | 8 | 13
O=c1ccc(-c2ccccc2)nn1CCCNS(=O)(=O)c1cccc(C(F)(F)F)c1 | 0 | -3
CCOc1ccc(-c2c(-c3ccccc3)ncn2Cc2cccnc2)cn1 | 4 | 4
COc1ccc(NC(=O)c2ccc(-n3nc(-c4ccc(OC)cc4)cc3N)cc2)cc1 | -2 | 0
CCN(CC)C(=O)Oc1ccc2c(ccn2Cc2ccccc2Cl)c1NC(=O)c1ccccc1OC | -2 | 1
COc1ccc(NC(=O)CCC(=O)N2CCc3ccccc3C2)cc1 | -16 | -9
Cc1cc(C(F)(F)F)c2c(=O)n(Cc3ccc(C(C)(C)C)cc3)n(C)c2n1 | 5 | 4
CN(Cc1ccco1)S(=O)(=O)c1sc2c(c1C(=O)O)CCNC2 | 20 | 3
OCC(O)CSc1ncc(-c2ccccc2)n1CC(F)(F)F (configuration not stated) | 0 | 2
Cc1cccc(CN2CCN(C(=O)C3CCOCC3)C(C)C2=O)c1 (configuration not stated) | 3 | 3
CCOc1ncccc1CNc1nc(-c2cccnc2)nc2c1CCNC2 | -13 | -8
O=C(C1CCC1)N1CCCC(OCc2ccccc2Cl)C1 (configuration not stated) | -4 | -11
CC(C)Cc1nc(CCc2cnn(C)c2)n(-c2ccc(F)cc2)n1 | -7 | 2
COc1cccc(OCc2ccccc2)c1C(=O)N[C@@H]1C[C@@H]2C[C@H]([C@H]1C)C2(C)C | -14 | -7
CC(C)NC(=O)[C@@H]1C[C@H](N)CN1Cc1cc2c(cc1Cl)OCO2 | -11 | -7
CCCCn1c(N)c(N(Cc2ccco2)C(=O)c2ccc(F)c(F)c2)c(=O)[nH]c1=O | 13 | 13
Cc1ccccc1CSc1nnc(C(C)NC(=O)C(C)(C)CCl)n1-c1ccc([N+](=O)[O-])cc1 (configuration not stated) | 9 | 14
CC(Nc1ccc2c(c1)NC(=O)CO2)C(=O)N1CCC(Cc2ccccc2)CC1 (configuration not stated) | 4 | 11
O=c1n(CN2CCN(c3ccccc3O)CC2)nc2ccccn12 | 0 | 2
COc1ccc(NC(=O)c2ccc(CSc3nnc(-c4cccs4)n3-c3ccccc3F)cc2)cc1 | 17 | 5
CC(=O)N1CCc2cc(NC(=O)CN(C)C3CCc4ccccc43)ccc21 (configuration not stated) | 0 | 0
O=C(Nc1nc(-c2cc3ccccc3oc2=O)cs1)c1ccccc1Br | -14 | -5
CC(=O)Nc1ccc(CN2C(=O)C(C)ON=C2C2CC2)cc1 (configuration not stated) | -2 | -1
COc1ccccc1N=C1SC(C(=O)Nc2ccc(C)c(Cl)c2)CC(=O)N1C (configuration not stated) | -1 | 2
Cc1cccn2c(=O)nc(SCC(=O)Nc3ccc(C(N)=O)cc3)nc12 | -1 | 2
CCC(=O)Nc1ccc(S(=O)(=O)NCCc2ccc3c(c2)CCCN3C)c(C)c1 | 7 | 11
COCC1CCCCN1Cc1nc(-c2ccc(C)o2)oc1C (configuration not stated) | 12 | 6
CCOC(=O)c1c(NC(=O)CCN2C(=O)c3ccccc3C2=O)sc2c1CCCCC2 | -9 | -5
CCOc1cc2c(cc1CNCc1cc(Cl)c(OC(C)C)c(OC)c1)OC(C)C2 (configuration not stated) | 0 | 1
COc1ccc(C(=O)N(Cc2cc(NC(=O)c3cccs3)ccc2N(C)C)C(C)c2ccccc2)cc1 (configuration not stated) | 15 | 16
C=CCCC(=O)N1CCC2(CCCN(Cc3ccc(C(C)C)cc3)C2)C1 (configuration not stated) | -1 | 5

# More records follow.
Molecule | NPYLR7 ag max-min | NPYLR7 ag
O=S(=O)(c1ccccc1)N1CCSC1c1ccccc1 (configuration not stated) | 0 | 4
CCOC(=O)c1ccc(S(=O)(=O)NC(C)c2ccc(C)o2)c(Br)c1 (configuration not stated) | 6 | 13
CC(C)CNc1ccc2c(n1)C(=O)N([C@H](C)C(=O)N[C@H](C)c1ccccc1)C2 | 1 | 3
CCCCCn1c(N2CCOCC2)nc2c1c(=O)n(CC(N)=O)c(=O)n2C | 1 | 1
CCCc1nnc2sc(COc3ccc(C)c(C)c3)nn12 | 2 | 4
CC(C)Cc1cc(NC(=O)N2CCC(NC(=O)c3ccsc3)CC2)n(C)n1 | -7 | -3
COc1cc2c(cc1OC)C(c1ccccc1)N(C(=O)c1ccc(-c3ccc4c(c3)OCCO4)s1)CC2 (configuration not stated) | 13 | 27
CCn1cc(-c2c(-c3ccccc3)ncn2CCN(C)S(C)(=O)=O)cn1 | -5 | -4
Cc1ccccc1CN1CCC(CN(CC2CCCO2)C(=O)c2cscn2)CC1 (configuration not stated) | 3 | 15
CC(C)(C)c1ccc(-c2ccnc3nc(N4CCN(S(=O)(=O)c5ccc(F)cc5)CC4)nn23)cc1 | 21 | 29
COc1cccc(C(c2c(O)cc(C)n(Cc3cccnc3)c2=O)N2CCN(c3ccccn3)CC2)c1 (configuration not stated) | 5 | 14
COC(=O)c1ccc(CSc2nnc(-c3ccncc3)n2-c2cccc(C(F)(F)F)c2)o1 | -2 | -2
CCc1nc2ccc(C(=O)Nc3cccc(NS(C)(=O)=O)c3)cn2c1N(C)CCN1CCOCC1 | 12 | 19
CSCCNC(=O)C1(C)CCN1C(=O)CCc1ccccc1 (configuration not stated) | 4 | 7
C/C(=N/NC(=O)CSCc1ccccc1Br)C(C)(C)C | -6 | -2
CC(=O)c1ccc(N2CCN(C(=O)c3ccc(F)cc3F)CC2)c(F)c1 | 20 | 1
CCC(C)(C)NC(=O)c1cnc(-c2ccccc2Cl)s1 | 1 | 1
CC(C)N(CC(=O)Nc1nc(CC(=O)NC2CC2)cs1)C(=O)c1ccc(Cl)cc1 | 30 | 29
O=C(CN1CN(c2ccccc2)C2(CCN(C(=O)Nc3ccc(F)cc3F)CC2)C1=O)N1CCCC1 | -1 | -8
CCCNC(=O)CSc1nnc(-c2ccc(OCC)cc2)o1 | -11 | -6
Cc1ncc([N+](=O)[O-])n1CCN1C(=O)CC[C@H](NC(=O)OC(C)(C)C)C1=O | -11 | -6
Cc1c(C)n2c3c(=O)n(CCC(C)C)c(=O)n(C)c3nc2n1C(C)C | -3 | 3
COc1ccc(C(=O)NCCc2cc3c(C)ccc(C)c3[nH]c2=O)cc1 | 11 | -1
Cc1ccc(OCCOCC(O)CNC(C)(C)CO)cc1C (configuration not stated) | -15 | -9
O=C1OC(/C=C/c2cccc([N+](=O)[O-])c2)=NC/1=C\c1cccc2ccccc12 | 3 | 4
CCc1ccc(CN(C)C(=O)[C@H](N)CC(C)C)nc1 | -3 | -2
COCCNC(=O)C1(C)CCCN(Cc2ccc(C)c3ccccc23)C1 (configuration not stated) | 0 | 3
CCOC(=O)c1c(NC(=O)c2cccs2)sc(C(=O)Nc2cccc([N+](=O)[O-])c2)c1C | -14 | -9
CCOC(=O)c1ccc(NC(=O)C2=C(O)c3ccccc3S(=O)(=O)N2c2c(C)cccc2C)cc1 | 12 | 5
CCc1ccc(-c2cc3c(SCC(=O)Nc4ccccc4C)nccn3n2)cc1 | -8 | -1
Cc1ccc(C(=O)N(C)C)cc1NCc1nnc(C(C)C)o1 | 4 | 6
COc1cc2c(cc1OC)CN(CCNS(=O)(=O)c1ccc(F)cc1C)CC2 | 0 | 1
CS(=O)c1nncn1-c1nc2cc(C(F)(F)F)ccc2s1 (configuration not stated) | -4 | 4
CCN(CC)c1ccc(NC(=O)CCN2C(=O)c3cccc([N+](=O)[O-])c3C2=O)cc1 | -12 | -9
O=C(NCc1cccnc1Oc1ccc(F)cc1F)c1[nH]ncc1Cl | -5 | -4
CC(C)CCN1CCN(c2nc3c(c(=O)[nH]c(=O)n3C)n2Cc2ccc(Cl)c(Cl)c2)CC1 | -10 | -8
Cc1ccccc1C(OCC(O)CN1C(=O)C2CCCN2C1=O)c1ccccc1 (configuration not stated) | 11 | -1
Cc1ccsc1CN(C)C(=S)Nc1ccccc1F | -3 | -1
O=C1CC(c2ccc(O)c(O)c2)Oc2cc(O)cc(O)c21 (configuration not stated) | -8 | -7
CN(C)c1nc2c(c(=O)[nH]1)CCN(C(=O)[C@H]1CCCN1)C2 | -7 | -5

# Full records as entered above. Screens in order: NPYLR7 ag max-min | NPYLR7 ag
# Results for CCOC(=O)c1ccc(NC(=O)C2=C(O)c3ccccc3S(=O)(=O)N2c2c(C)cccc2C)cc1 = 12 | 5
# Results for Cc1ccsc1CN(C)C(=S)Nc1ccccc1F = -3 | -1
# Results for O=C(NCc1cccnc1Oc1ccc(F)cc1F)c1[nH]ncc1Cl = -5 | -4
# Results for O=C(CN1CN(c2ccccc2)C2(CCN(C(=O)Nc3ccc(F)cc3F)CC2)C1=O)N1CCCC1 = -1 | -8
# Results for CCOC(=O)c1c(NC(=O)CCN2C(=O)c3ccccc3C2=O)sc2c1CCCCC2 = -9 | -5

# Looked up above.
# Cc1c(C)n2c3c(=O)n(CCC(C)C)c(=O)n(C)c3nc2n1C(C)C @ NPYLR7 ag: 3
# O=C1CC(c2ccc(O)c(O)c2)Oc2cc(O)cc(O)c21 (configuration not stated) @ NPYLR7 ag: -7
# Cc1ccc(C(=O)N(C)C)cc1NCc1nnc(C(C)C)o1 @ NPYLR7 ag: 6

# Following part:
Molecule | NPYLR7 ag max-min | NPYLR7 ag
C#CCNC(=O)C[C@@H]1CCN(C(=O)N2CCOCC2)C[C@@H]1CC | -12 | -8
Cc1ccc(N=C(NOCc2cccc([N+](=O)[O-])c2)c2nonc2N)cc1 | -14 | -6
Cc1ccc2nc(N(CCN(C)C)C(=O)c3cc4ccccc4oc3=O)sc2c1 | -11 | -7
Cc1cc(C)n(-c2cc(NCCNC(=O)/C=C/c3ccccc3)nc(C)n2)n1 | -12 | -12
Cn1ncc(N2CCC(CNC(=O)Cc3ccc(O)c(Cl)c3)C2)cc1=O (configuration not stated) | -3 | 6
CCc1nc2n(n1)C(=O)C(C(c1cccs1)N1CCC(C)CC1)S2 (configuration not stated) | 17 | 11
CC1CCC(Oc2cc(CNCc3cnn(C)c3)ccn2)CC1 (configuration not stated) | 2 | 8
C=CCCC(=O)N1[C@@H](c2ccco2)[C@@H](C(=O)O)C[C@]12CCCCN(C)C2=O | 14 | 4
COCCN(Cc1ccc(OS(=O)(=O)c2ccc(NC(C)=O)cc2)cc1)C(=O)C(C)C | 3 | -5
CC1(C(=O)Nc2cccc3c2CCCC3)CCN1C(=O)C1(c2ccccc2)CC1 (configuration not stated) | 3 | 5
CCN(Cc1ccccn1)C(=O)CNC(=O)c1c(F)cccc1Cl | -2 | 11
COc1ccc(Cl)cc1CN1C(=O)CON=C1c1ccc(C)cc1 | 3 | 6
Cc1[nH]nc2ncc(C(=O)NCC(=O)N3CCCc4ccccc43)cc12 | -1 | 0
CC(C)=CCN1CCN(Cc2cc(Cl)ccc2O)CC1CCO (configuration not stated) | -2 | -2
CCN(CC)c1onc(-c2ccccc2)c1CN(Cc1ccccc1)C(=O)Cc1ccccc1 | 4 | 3
Cc1ccccc1CN1CCN2C(C(=O)Nc3ccc(-n4cccc4)cc3)=COC2=NC1=O | 0 | 2

# Screening results deposited in PubChem BioAssay by Fisher Drug Discovery Resource Center.
